High-throughput results as filed in PubChem BioAssay.
GIV-Gai inh = inhibitors of GIV GBA-motif binding to rat Galpha-i3. 210,000 compounds, 0.42% hits. Galpha-i3/FITC-GIV peptide fluorescence polarization, 90 min; hits give low values; scaled: aluminum fluoride 0%, vehicle 100%. percent of control (FP), % (no concentration beside the values);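 active = replicate mean at 85% of control or lower, very high polarization wells dropped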;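 note: wells of about 15 µL received 100 nL stock; the first replicate is given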
Target sequence (P08753 whole entry, looked up): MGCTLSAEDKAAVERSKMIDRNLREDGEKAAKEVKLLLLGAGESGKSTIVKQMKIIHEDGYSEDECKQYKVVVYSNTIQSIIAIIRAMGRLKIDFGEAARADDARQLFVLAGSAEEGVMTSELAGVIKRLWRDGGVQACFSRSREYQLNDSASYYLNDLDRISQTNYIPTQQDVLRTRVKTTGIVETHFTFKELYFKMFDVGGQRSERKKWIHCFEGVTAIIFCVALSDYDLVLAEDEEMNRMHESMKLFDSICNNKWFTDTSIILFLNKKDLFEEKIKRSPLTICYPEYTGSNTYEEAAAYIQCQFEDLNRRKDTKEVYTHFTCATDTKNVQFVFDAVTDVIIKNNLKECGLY
The depositor's hits bear a star.

GIV-Gai inh	SMILES
105	CCOCC(=O)N1CCc2c(c(C(=O)N3CCCC(C(=O)N(CC)CC)C3)nn2C)C1 (configuration not stated)
114	CCCCC(=O)Nc1ccc2nc(N3CCCC3)cc(C)c2c1
109	Cn1ccnc1SCC(=O)Nc1ccc2nc(SCC(=O)Nc3ccc(F)cc3)sc2c1
109	CN(CC(=O)Nc1ccc(F)cc1Cl)S(=O)(=O)c1cc2c(cc1Cl)NC(=O)CO2
106	CCCCN1C(=O)C2(CCOCC2)Nc2ccccc21
100	Cc1cc(C)nc(NS(=O)(=O)c2ccc(NC(=O)Cn3cnc4ccccc4c3=O)cc2)n1
105	Cc1ccccc1-c1cc2n(C)c(C)c(CCC(=O)NCCC(C)C)c(=O)n2n1
100	COc1ccc(N2CCN(S(=O)(=O)c3cc(-c4nc(C)c(C)s4)sc3C)CC2)cc1
105	Oc1cccc(-c2nc3cnc(Br)cn3c2Nc2ccc3c(c2)OCCO3)c1
104	COc1ccc(C2/C(=C(\O)c3ccccc3)C(=O)C(=O)N2c2cccc(Cl)c2)cc1OC (configuration not stated)
110	CCOC(=O)c1sc2nc(CC(=O)OC)nc(Nc3ccc(F)c(Cl)c3)c2c1C
99	Cc1cccc(NS(=O)(=O)c2cc(-c3cc(C(F)(F)F)on3)sc2C)c1C
103	Cc1ccc(NC(=O)Cn2nc(C(=O)Nc3ccccc3)ccc2=O)cc1
97	CCc1noc2nc(CCC(=O)NC3CCCCC3)nc(N3CCCCC3)c12
118	CCCCN(CCCC)c1ncnc2c1sc1nc(N3CCOCC3)c3c(c12)CCCC3
114	COc1cc(/C=C2\SC(NC(C)=O)=NC2=O)cc(OC)c1OC(C)=O
114	O=c1n(CCc2ccccc2)nc2c(S(=O)(=O)N3CCN(c4ccc(F)cc4)CC3)cccn12
104	COc1cccc(C2C=C(Nc3ccc(F)cc3)C(=O)N2c2ccc(F)cc2)c1 (configuration not stated)
107	Cc1ccc(Cn2nc3c(S(=O)(=O)N4CCc5ccccc5C4)cccn3c2=O)cc1
106	Fc1ccc2[nH]c3nc4ccccc4nc3c2c1
101	COc1ccccc1[C@@H]1[C@@H](C(=O)c2ccccc2)N2c3ccc(Cl)cc3C=C[C@@H]2C1(C#N)C#N
106	C=CCn1c(SCC(=O)OC(C)C)nc2c(-c3ccccc3)cn(C)c2c1=O
106	COc1cc(C2C(C#N)=C(N)OC3=C2C(=O)CC(C)(C)C3)ccc1OC(=O)c1cccs1 (configuration not stated)
106	CC12c3ccccc3C(C=O)(c3ccccc31)C1C(=O)N(c3ccc(Cl)c(C(F)(F)F)c3)C(=O)C12 (configuration not stated)
109	CCOC(=O)C1=C(O)/C(=C\c2cc(OC)c(OC)c(OC)c2)SC1=Nc1ccc(C)cc1
103	CN1c2ccccc2-c2ccccc2C12C=Cc1cc(Br)cc(Br)c1O2 (configuration not stated)
104	CCOC(=O)C1=NNC2C(=O)N(c3ccc(F)cc3)C(=O)C12 (configuration not stated)
100	Cc1nc(CCNC(=O)[C@H]2CSCN2S(=O)(=O)c2cc(C)c(C)cc2C)cs1
107	CC(=O)/C=C1/c2ccccc2CC(C)(C)N1C
102	COc1ccccc1/C=C\C=C1\C(=O)N(c2cc(C)cc(C)c2)C(c2cccc([N+](=O)[O-])c2)S1(=O)=O (configuration not stated)
94	CCCCN(CC)C(=O)c1cc(NC(=O)C(C)(C)C)cnc1N1CCNCC1
99	COc1ccc(CCn2c(-c3ccc(C)c(C)c3)csc2=Nc2ccccc2)cc1
112	COc1cc(C(=O)N2CCN(C3=NS(=O)(=O)c4ccccc43)CC2)cc(OC)c1OC
105	CSc1nc(N)nc(SCC(=O)Nc2ccc([N+](=O)[O-])cc2)c1C#N
114	CC1(C)CC(=O)C2=C(C1)OC1=C(C(=O)CC(C)(C)C1)C2c1cn[nH]c1-c1ccccc1
100	S=c1n(CN2CCC(Cc3ccccc3)CC2)nc(-c2ccccc2Cl)n1-c1ccccc1
106	CCN(CC)CCCNc1cc(C(=O)O)c2ccccc2n1
97	CC(=O)Nc1ccc2nc(N3CCC(C(=O)N4CCCCC4)CC3)cc(C)c2c1
105	CCN(CC)S(=O)(=O)c1ccc2nc(NCc3ccc4c(c3)OCO4)cnc2c1
105	CCOC(=O)C1=C(C)N=c2s/c(=C\c3cccc(OC)c3OC)c(=O)n2C1c1ccc(OC)c(OC)c1 (configuration not stated)
111	CCc1ccc(-c2noc(CSc3nc4cc5c(cc4c(=O)n3CCOC)OCO5)n2)cc1
106	CC1=NN(c2ccccc2)C(=O)C1C(c1cccc(Cl)c1)C(C#N)C#N (configuration not stated)
102	O=C(Nc1cccc(-c2nnc(-c3ccccc3)o2)c1)Nc1cc(F)ccc1F
103	Cc1ccccc1NC(=O)Cn1nc(C(=O)Nc2ccccc2)ccc1=O
112	O=C(c1ccccc1Cl)N1N=C(C2CCCCC2)CC1(O)C(F)(F)F (configuration not stated)
113	O=C1CC2c3ccccc3C1C1C(=O)N(c3ccc([N+](=O)[O-])cc3)C(=O)C21 (configuration not stated)
111	CCOC(=O)c1c(NC(=O)C(C)Sc2nnc(CNC(=O)COc3ccc(Cl)cc3)n2C)sc2c1CCCCC2 (configuration not stated)
100	O=C(CN1C2=NCCN2c2ccccc21)c1ccc(F)cc1
111	COc1cc(C(=O)NN2S(=O)(=O)c3ccccc3S2(=O)=O)cc(OC)c1OC
107	COc1cc(OC)cc(C(=O)N2c3ccccc3N3C(c4c(C)c(C)cc(C)c4C)=NON23)c1
107	Cc1nn(-c2nc3ccccc3o2)c2c1C(c1ccccc1Cl)CC(=O)N2 (configuration not stated)
105	Cc1c(CCNC(=O)c2ccc(F)cc2)sc2nc(-c3ccccc3)nn12
116	S=C1NC(c2ccc(OCc3ccccc3)cc2)=CC(c2ccccc2Cl)N1 (configuration not stated)
101	COC(=O)c1ccc(Oc2cc(C)nc(NCc3ccccc3)n2)cc1
101	COc1cc(NC(=O)c2sc3ncn(CC(=O)N4CC(C)CC(C)C4)c(=O)c3c2C)cc(OC)c1OC (configuration not stated)
98	C=CCn1c(SCC(=O)Nc2ccc3c(c2)OCO3)nc2sc(C)c(C)c2c1=O
105	CCOC(=O)C1=C(c2ccccc2)S/C(=C2/C(=S)C(C)(C)N(C(=O)C(F)(F)F)c3ccc(OCC)cc32)S1
101	CCSc1nnc(-c2nn(C)c3c2CN(C(=O)Nc2ccc(OC)cc2)CC3)n1CC
102	CCN(CC)c1nc2ccsc2c(=O)n1CC(=O)NC1CCCC1
103	COC(=O)c1ccc2c(=O)n(-c3ccc4c(c3)OCO4)c(N3CCN(c4ccccc4)CC3)nc2c1

Gathered by group: the compounds so far containing bromine
GIV-Gai inh	SMILES
105	Oc1cccc(-c2nc3cnc(Br)cn3c2Nc2ccc3c(c2)OCCO3)c1
103	CN1c2ccccc2-c2ccccc2C12C=Cc1cc(Br)cc(Br)c1O2 (configuration not stated)

Going on with the list:
GIV-Gai inh	SMILES
105	C=CCN1C(=O)CC(C(=O)Nc2ccc(OC)cc2)SC1=Nc1ccc(C(=O)OCC)cc1 (configuration not stated)
101	CCOc1ccccc1N1CCN(C(=O)c2sc3ncccc3c2-n2cccc2)CC1
110	COc1cccc(C2=N/C(=C\c3ccccc3OC)C(=O)N2c2cccc(Cl)c2C)c1
103	Cc1nn(-c2nc3ccccc3n2C)c2c1C(c1cc(Cl)ccc1F)CC(=O)N2 (configuration not stated)
107	CCOc1ccc(-c2[nH]nc3c2C(c2ccc(OCC)c(OCC)c2)C(C#N)=C(N)O3)cc1OC (configuration not stated)
104	CCc1ccc(CNC(=O)C2Cc3ccccc3CN2S(=O)(=O)c2ccc(C)cc2)cc1 (configuration not stated)
102	CC(C)n1c(N2CCCN(C(=O)C3CCCO3)CC2)cc(=O)n(C(C)C)c1=O (configuration not stated)
101	COC(=O)c1ccc2c(=O)n(CCc3ccc(OC)c(OC)c3)c(SCC(=O)Nc3ccc(OC)cc3OC)nc2c1
101	Cc1cc(SCC(=O)N2CCc3ccccc32)nc2ccc(S(=O)(=O)N3CCC(C)CC3)cc12
106	COc1ccc(-n2c(=S)[nH]c3cc(C(=O)Nc4cc(OC)c(OC)c(OC)c4)ccc3c2=O)c(OC)c1
101	Cc1ccc(-c2nc(NC(=O)c3c(-c4ccccc4Cl)noc3C)sc2C)cc1
111	O=c1oc2ccc([N+](=O)[O-])cc2cc1-c1nc(-c2ccc(Cl)cc2)cs1
99	Cc1nn(-c2ccc3nnc(C)n3n2)c2c1C(c1c(F)cccc1Cl)CC(=O)N2 (configuration not stated)
110	CCCN1C(=O)c2cccc3c(S(=O)(=O)N(C)C)ccc1c23
114	CCOC(=O)CSc1nnc(-c2ccccc2)c(-c2ccccc2)n1
98	CC1(C)CC(C)(c2ccc(O)cc2O)N(c2cccc(C(F)(F)F)c2)C(=S)N1 (configuration not stated)
112	COc1cccc(C2N(c3ccc(C)cc3)N=C(C(C)=O)N2c2cccc(C)c2)c1OCc1ccccc1 (configuration not stated)
107	CCCNC(=O)c1ccc2c(c1)S(=O)(=O)N=CN2CCC
99	O=C(Nc1ccc2c(c1)OCO2)N1CCC(N2CCN(Cc3cccc(F)c3)C(=O)C2=O)CC1
97	COc1ccc(NC(=O)N2CCOc3ccc(COCc4cccc(F)c4)cc3C2)c(OC)c1
108	O=C(Nc1ccccc1)N1CCC(n2cnc3c(Cl)cccc3c2=O)CC1
99	Cc1[nH]nc2c1C1(C(=O)N(CCc3ccccc3)c3ccccc31)C(C#N)=C(N)O2 (configuration not stated)
112	Cn1c(=O)c([N+](=O)[O-])c(NCCc2ccccc2)c2ccccc21
107	CCOC(=O)C1(C)C/C(=N\NC(=O)c2ccccc2)C(=O)N1c1ccccc1 (configuration not stated)
104	O=C(c1ccccc1Cl)N1c2ccccc2Sc2ccc(C(F)(F)F)cc21
102	Cc1ccc(C)c(NC(=O)c2ccc3c(c2)N(Cc2ccc(F)cc2)C(=O)CS3)c1
127	Cc1oc(-c2cccc(Cl)c2)nc1Cn1nnc(-c2nc(-c3cccnc3)no2)c1C
104	COc1ccccc1N1CCN(C(=O)CNC(=O)Cn2cnc3sc(C)c(C)c3c2=O)CC1
105	COc1ccc2occ(C(=O)c3oc4ccc(Cl)cc4c3N)c2c1
110	O=[N+]([O-])C(=C(\Nc1ccccc1)Sc1ccccc1)/C(Cl)=C(/Cl)Br

Single entries from the results shown:
Value for COc1cccc(C2=N/C(=C\c3ccccc3OC)C(=O)N2c2cccc(Cl)c2C)c1 under GIV-Gai inh: 110
Value for Cc1cc(SCC(=O)N2CCc3ccccc32)nc2ccc(S(=O)(=O)N3CCC(C)CC3)cc12 under GIV-Gai inh: 101
Value for COc1cc(OC)cc(C(=O)N2c3ccccc3N3C(c4c(C)c(C)cc(C)c4C)=NON23)c1 under GIV-Gai inh: 107
Value for CCSc1nnc(-c2nn(C)c3c2CN(C(=O)Nc2ccc(OC)cc2)CC3)n1CC under GIV-Gai inh: 101
Value for Cc1ccc(NC(=O)Cn2nc(C(=O)Nc3ccccc3)ccc2=O)cc1 under GIV-Gai inh: 103

Back to the main list, repeating the six entries before the break.
GIV-Gai inh	SMILES
104	O=C(c1ccccc1Cl)N1c2ccccc2Sc2ccc(C(F)(F)F)cc21
102	Cc1ccc(C)c(NC(=O)c2ccc3c(c2)N(Cc2ccc(F)cc2)C(=O)CS3)c1
127	Cc1oc(-c2cccc(Cl)c2)nc1Cn1nnc(-c2nc(-c3cccnc3)no2)c1C
104	COc1ccccc1N1CCN(C(=O)CNC(=O)Cn2cnc3sc(C)c(C)c3c2=O)CC1
105	COc1ccc2occ(C(=O)c3oc4ccc(Cl)cc4c3N)c2c1
110	O=[N+]([O-])C(=C(\Nc1ccccc1)Sc1ccccc1)/C(Cl)=C(/Cl)Br
105	O=c1c2cc3c(cc2nc(SCc2nc(-c4ccc5c(c4)OCO5)no2)n1C1CCCC1)OCO3
102	Cc1nc(N2CCN(Cc3ccc4c(c3)OCO4)CC2)c2c3c(sc2n1)CCCC3
94	CCC(=O)C1=C(c2ccc(C)cc2)N(C(=O)CC)n2cnnc2S1
115	CCOC(=O)c1sc2nc(SCC(=O)NCc3ccccc3)n(Cc3ccco3)c(=O)c2c1C
110	CCOc1cc(C2C(C#N)=C(N)Oc3n[nH]c(-c4ccncc4)c32)cc([N+](=O)[O-])c1O (configuration not stated)
105	Cc1nc(CCNC(=O)[C@H]2CCCN2S(=O)(=O)c2cccc3nsnc23)cs1
105	CN(C)S(=O)(=O)c1ccc2c(c1)cc(C(=O)NCCCN1CCCC1)n2Cc1ccncc1
103	COc1cccc(NC(=O)Cn2ncn3nc4c(c3c2=O)CCCC4)c1
108	Nc1nc(Cn2nnc(-c3ccccc3Cl)n2)nc(N2CCOCC2)n1
109	Cc1nc(C)c(C(=O)N2CCc3cc(-c4csc(C5CC5)n4)ccc32)s1
99	Cc1cc(C)c(C)c(S(=O)(=O)N2CCC(c3noc(-c4ccc(F)cc4)n3)CC2)c1C
100	Cc1nc(OCC(=O)N2CCc3ccccc32)c2c(-c3ccccc3)noc2n1
108	Cc1cc(C)c(-c2nc(-c3ccc(Br)cc3)no2)c(=O)[nH]1
102	C=CCc1ccc(OCCOc2c(Cl)cc(-c3nc4sc5c(c4c(=O)[nH]3)CCCC5)cc2OCC)c(OC)c1
110	Cc1ccc(-c2nc3ccc(F)cc3nc2-c2ccc(C)cc2)cc1
111	CCC(=O)Oc1ccc(/C=C2\C(=O)N(c3cccc(C(F)(F)F)c3)N=C2C)cc1OC
110	CCOc1ncnc2c1sc1nc(N3CCOCC3)c3c(c12)CCCC3
105	COc1ccc(/C=N/OCC(=O)Nc2oc(-c3ccccc3)c(-c3ccccc3)c2C#N)cc1
113	CC1(C)CC(C)(c2ccc(OC(=O)c3ccccc3)cc2OC(=O)c2ccccc2)N(c2ccccc2)C(=S)N1 (configuration not stated)
101	Cc1ccc2nc(N3CCC(C(=O)NCCN4CCN(c5cccc(Cl)c5)CC4)CC3)[nH]c2c1
103	O=C(CSc1nc2ccccc2c(=O)[nH]1)Nc1cccc(Br)c1
106	O=C(Nc1ccc(F)cc1)C1CC(=O)N(Cc2ccc3c(c2)OCO3)C(=Nc2ccc(F)cc2)S1 (configuration not stated)
101	CCc1ccc(S(=O)(=O)N2C[C@H]3CN(S(=O)(=O)c4ccccc4)C[C@@H](C2)O3)cc1
107	CCCN1C(SCc2ccccc2F)=NS(=O)(=O)c2ccccc21
121	CCOC(=O)c1cnc2sc3ccccc3n2c1=O
103	CC1(C)CC(NC(=O)CCC(=O)NC2CC(C)(C)NC(C)(C)C2)CC(C)(C)N1
98	O=C(C1=COCCO1)N1CCN(c2nc3ccc(F)cc3s2)CC1

Not all compounds are listed; rates above refer to the full screens.
